Compound activity: PubChem BioAssay, several laboratories
HSV replic up – enhancers of HSV replication in host cells, fold increase, host cell viability | hit rate 0.005% among 220,000 | AID 1956, 2009 | HSV replication augmentation in cells | maximum fold increase;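 active = peak rise of 1.5-fold or more in the series; tested in PC3 cells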;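 also: first round at 10 µM; read as green reporter fluorescence; hits show the peak of a series up to 25 µM; 1 = signal of infected wells without compound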
GALR2 agonist – GALR2 receptor agonists, primary screen, cell-based | GALR2-expressing cells, agonist activation read-out | activation, %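 (tested at 5 µM)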 | hit rate 0.48% among 140,000 | AID 803, 2007;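 active = above mean plus 3 SD of all compounds, about 5% in these data, not always enough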;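 also: 0% = vehicle buffer wells and 100% = reference agonist at full effect; tested in CHO reporter cells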
Target sequence (O43603 whole entry, looked up): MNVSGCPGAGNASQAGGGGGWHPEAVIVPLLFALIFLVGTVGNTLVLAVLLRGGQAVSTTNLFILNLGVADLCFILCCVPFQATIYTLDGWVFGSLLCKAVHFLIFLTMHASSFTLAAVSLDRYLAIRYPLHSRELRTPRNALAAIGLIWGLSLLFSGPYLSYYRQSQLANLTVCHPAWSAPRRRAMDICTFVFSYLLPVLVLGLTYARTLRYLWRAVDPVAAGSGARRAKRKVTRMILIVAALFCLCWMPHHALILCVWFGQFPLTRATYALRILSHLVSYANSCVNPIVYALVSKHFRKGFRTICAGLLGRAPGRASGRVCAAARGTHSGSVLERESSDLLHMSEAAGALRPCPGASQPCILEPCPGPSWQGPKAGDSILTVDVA
Insulin prom inh – inhibitors of insulin promoter-driven GFP, primary screen, imaging, TRM-6 cells (human fetal islet line), eGFP reporter, cell count. reporter expression induced with tamoxifen. inhibition, % at 2 µM. hit rate 0.9% among 130,000. AID 1273, 2008;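 active = inhibition above the mean plus 3 SD, with well images judged a real hit on visual review, cut at about 60% in these data, passing the limit was not always enough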
PKD1 kinase inh – inhibitors of human PKD1 kinase, biochemical, fluorescence polarization. hit rate 0.056% among 200,000. Serine/threonine-protein kinase D1 (Homo sapiens), Q15139. inhibition, %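 (about 10 µM by stock and volumes)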. PKD1 kinase fluorescence polarization assay;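 active = inhibition of 50% or more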;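 also: controls were vehicle for no effect and a reference inhibitor for full effect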
RGS16-Gao HTS – modulators of RGS16 binding to Galphao, primary screen, biochemical, human proteins, multiplexed bead flow cytometry; Regulator of G-protein signaling 16 (Homo sapiens) + Guanine nucleotide-binding protein …; bead-based flow cytometry RGS16-Galphao binding, fluorescence; actives lie on both sides; binding response (% of control), % at 10 µM; hit rate 0.38% among 220,000; AID 1441, 2008;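 active = below 25% or above 175%, edge rows of some plates excepted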;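 also: Galphao activated by GDP with aluminum fluoride before binding; 100% = wells without compound and 0% = beads without RGS; some results beyond the cut were filed as inactive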
Target sequence (O15492 whole entry, looked up): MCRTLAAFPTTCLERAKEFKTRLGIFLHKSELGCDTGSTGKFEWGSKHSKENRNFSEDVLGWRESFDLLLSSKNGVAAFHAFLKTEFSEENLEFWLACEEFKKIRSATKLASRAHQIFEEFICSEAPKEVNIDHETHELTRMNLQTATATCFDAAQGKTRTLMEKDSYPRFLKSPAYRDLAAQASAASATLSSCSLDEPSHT
Target sequence (P09471 whole entry, looked up): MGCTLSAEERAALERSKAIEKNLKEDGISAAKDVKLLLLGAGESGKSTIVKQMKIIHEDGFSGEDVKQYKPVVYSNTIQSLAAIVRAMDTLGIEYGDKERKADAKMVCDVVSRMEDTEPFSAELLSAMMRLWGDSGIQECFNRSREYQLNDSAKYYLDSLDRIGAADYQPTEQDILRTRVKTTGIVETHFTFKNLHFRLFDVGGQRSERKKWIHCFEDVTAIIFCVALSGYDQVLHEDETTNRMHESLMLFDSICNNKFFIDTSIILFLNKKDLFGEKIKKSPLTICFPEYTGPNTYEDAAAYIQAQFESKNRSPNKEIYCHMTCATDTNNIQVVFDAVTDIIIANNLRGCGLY
Insulin prom inh cell count – also measured in Insulin prom inh; calls as there; normalized cell count, %; measured here: cell count, toxicity; reference of the scale not given here;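 cells exposed to compound for 48 h; stained nuclei by imaging scaled within each plate; lower means fewer cells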
HSV replic up primary fold – further read-out of HSV replic up, marked with its call; fold increase; compound at 10 µM; measured here: primary screen fold increase 10 uM; tested in PC3 cells;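 GFP signal in the first replicate; 1 = infected wells without compound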
* = called active by the depositor; i = inactive; . = no result given; & = joins results of further samples.

SMILES	HSV replic up	HSV replic up primary fold	GALR2 agonist	Insulin prom inh	Insulin prom inh cell count	PKD1 kinase inh	RGS16-Gao HTS
CCCCNC(=O)C(Cc1ccccc1)NS(=O)(=O)c1ccc2c(c1)c(=O)n(C)c(=O)n2C (stereo not given)	i	0.83	-2.8	.	.	-2	96
Cc1cc[n+](-c2[nH]c(=O)sc2/C=N/N=C(\[O-])CCn2c3ccccc3c3ccccc32)cc1	i	0.7	.	.	.	.	96
O=C(NC1CCCCC1)C(c1cccnc1)N(C(=O)CCl)c1cccc(Cl)c1 (stereo not given)	i	0.98	-1.3	i	2	-6	93
COc1cccc(C2c3c(oc4ccccc4c3=O)C(=O)N2c2ccccn2)c1 (stereo not given)	i	0.92	-3.8	.	.	-5	102
Cc1ccc(CSc2n[nH]c(N)n2)cc1	i	1	.	50	109	10	109
Cc1ccc(S(=O)(=O)N2CCC(=O)N(C(COCc3cccc(Cl)c3)Cc3ccccc3)CC2)cc1 (stereo not given)	i	1.1	-0.9	-25	84	-3	107
CCOc1cccc(-c2nnc3sc(COc4ccccc4)nn23)c1	i	0.84	-1.3	25	73	-6	95
Cc1ccc(S(=O)(=O)N(C)c2ccc(OCC(=O)NCc3ccco3)cc2)cc1	i	0.83	-1.4	20	93	-4	92
COc1ccc(NC(=O)c2cccc(OC(=S)N3CCOCC3)c2)cc1	i	1.1	.	.	.	.	102
CCOC(=O)CSc1nc(C)c(Oc2ccc(Cl)cc2Cl)c(=O)[nH]1	i	1	.	.	.	.	101
Cc1ccc(C2C(C#N)=C(N)N(c3cccnc3)C3=C2C(=O)CCC3)c(C)c1 (stereo not given)	i	0.9	.	-50	136	-10	102
Cc1ccc(NC(=O)CN2C(=O)N/C(=C/c3cc(C)n(-c4cccc(C(=O)O)c4)c3C)C2=O)cc1	i	1.3	.	20	46	-2	96
Cc1ccc(N2CCN(C(=O)CCc3nc4ccccc4[nH]3)CC2)c(C)c1	i	0.77	-1.0	.	.	8	102
CC(C)(C)c1ccc(C(=O)NCCn2c(N)c(C#N)c3nc4ccccc4nc32)cc1	i	0.73	6.6*	-14	112	-1	66
Cc1c(Cl)cccc1NC(=S)NCC1COc2ccccc2O1 (stereo not given)	i	0.88	.	.	.	-2	111
Cc1ccc(NC(=O)C2C(=O)N(C)c3ccccc32)cc1 (stereo not given)	.	.	0.1	-67	51	2	98
O=C(COc1ccccc1)NC(=S)Nc1ccc2c(c1)Cc1ccccc1-2	i	1.1	-0.5	22	100	6	120
COC(=O)c1c(NC(=O)c2ccco2)sc2c1CCC2	i	0.99	-0.9	7	128	2	101
CCCCc1cc2c(cc1NC(=O)CN1CCCCC1)OCCO2	i	1.1	.	.	.	.	98
Cn1cnnc1SCc1ccccc1Br	i	0.99	-1.2	45	37	3	78
Cn1c(NC2CCCCC2)c(N=O)c(=O)n(C)c1=O	i	0.92	.	28	91	0	104
O=Cc1c(N2CCN(c3ccccc3)CC2)nc2ccccn2c1=O	i	0.82	.	.	.	-2	104
FCCCOc1ccc(/C=N/OCc2c(Cl)cccc2Cl)cc1	i	0.96	-0.7	-3	91	-8	87
COC(=O)c1sc(N)c(C(=O)OC)c1COC(=O)CNS(=O)(=O)c1cccc(C#N)c1	.	.	-1.0	-8	92	-8	137
COc1ccc(OC(=O)Nc2ccc([N+](=O)[O-])cc2OC)cc1	i	0.96	.	.	.	.	34
COC(=O)c1ccc(NC(=S)NC2CC2)cc1	i	0.98	.	.	.	0	150
O=C(COc1ccc(Br)cc1)Nc1ccc([N+](=O)[O-])cn1	i	1.1	-4.1	39	108	-16	101
O=[N+]([O-])c1ccc(C(O)C23CN4CN(CN(C4)C2)C3)cc1 (stereo not given)	i	0.94	.	.	.	2	103
COCCNC(=O)C(c1ccco1)N(Cc1ccc(OC)cc1)C(=O)Cn1nnc2ccccc21 (stereo not given)	.	.	-1.7	43	106	-2	104
CCOC(=O)CSc1nc2c(c(=O)n(C)c(=O)n2C)n1Cc1ccccc1F	i	0.89	-1.2	.	.	-9	102
COc1ccc(-n2c(=S)[nH]c3cc(C(=O)NCCCN4CCCC4=O)ccc3c2=O)c(OC)c1	i	1	-0.7	34	83	-6	99
O=C(Nc1cccc(C(=O)O)c1)/C(=C\c1ccccc1)NC(=O)c1ccccc1Cl	i	0.93	-3.6	-13	100	-13	94
Cc1cc(N(CCO)CCO)ccc1C(c1ccc(N(CCO)CCO)cc1C)c1ccccc1Cl	i	0.82	-0.5	-18	131	8	102
CCCCCCc1cc2cc(-c3nnc(-c4cc(OC)c(OC)c(OC)c4)o3)c(=O)oc2cc1O	.	.	-0.6	33	132	-4	98
COc1ccc(C(CCN2CCN(c3ccccc3)CC2)c2c(O)cc(OC)cc2OC)cc1 (stereo not given)	i	0.84	.	.	.	.	113
Cc1cc(C)n(C(=O)CCCn2nc(C)c([N+](=O)[O-])c2C)n1	.	.	.	0	80	-5	98
COc1cccc(N2CCN(S(=O)(=O)c3cccc4cccnc34)CC2)c1	i	0.98	.	35	92	2	97
CCc1ccc2oc(C(=O)Nc3ccc(S(N)(=O)=O)cc3)c(C)c2c1	i	1.1	.	.	.	3	103
COc1cc(/C=N/Nc2nc(Nc3ccccc3)nc(-n3nc(C)cc3C)n2)cc(OC)c1OC	i	0.79	8.1*	-38	91	6	114
COc1ccc(C2Nc3ccccc3C(=O)N2Cc2ccco2)cc1CN1C(=O)c2ccccc2C1=O (stereo not given)	i	0.9&0.87	-1.0	-78	167	-8&0	92&98
Cc1cc(Cl)ccc1OCC(O)CN1C(C)CCCC1C (stereo not given)	i	0.84	.	.	.	-2	100
CC(Nc1nc2ncn(Cc3ccccc3)c2c(=O)[nH]1)C(=O)O (stereo not given)	.	.	0.3	-16	18	-8	146
COCc1cc(C)nc(OCC(=O)N/N=C/c2ccccc2O)c1C#N	i	0.99	.	.	.	-5	94
Cc1cc(Cl)ccc1OCC(=O)N1CCCN(C(=O)COc2ccc(Cl)cc2C)CC1	i	0.93	-0.9	-60	80	-9	105
Cc1ccccc1CSCC(=O)N1CCN(c2ccccc2)CC1	i	0.93	-1.0	-233	1	3	102
Cc1ccccc1Nc1nc(N)nc(CSc2nnnn2C)n1	i	0.98	.	.	.	0	98
CCOc1ccc(NC(=O)N2CCN(CC)CC2)cc1	i	1.3	-1.3	57	104	-10	92
COC(=O)c1ccccc1NC(=S)N1CCN(C2CCCCC2)CC1	i	1	.	.	.	-8	109
CCC(C)(C)NC(=O)C(c1ccc(OC)cc1)N(CC1CCCO1)C(=O)CCC(=O)Nc1cc(C)on1 (stereo not given)	i	1	-1.2	-54	95	-8	95
Clc1cccc(Cl)c1-c1nnc2ccc(N3CCOCC3)nn12	i	0.94	1.6	-181	127	-5	87
Cc1cccc(-n2cc3c(=O)n(C)c(=O)n(C)c3c2)c1	i	0.99	.	-5	74	-7	77
Cc1ccc(-c2cc(C(F)F)n3ncc(C(=O)N4CCc5ccccc5C4)c3n2)cc1	i	0.95	.	-57	89	2	101
C/C(=N\NC(=O)c1csc(C)c1C)c1ccco1	i	0.91	-1.9	47	85	-10	103
Cc1cc(C)n2nc(NCc3ccccc3)nc2n1	i	1.1	-1.6	0	119	-1	101
Cc1ccc2c(c1)c1c(n2CC(O)Cn2c(C)nc3ccccc32)CCCC1 (stereo not given)	i	0.88	-1.9	.	.	-6	99
CC(=O)c1cc2c(cc1NC(=O)C1CC=CCC1C(=O)O)OCO2 (stereo not given)	i	0.99	-2.7	-20	98	-2	101
O=[N+]([O-])c1ccc(OCCN2CCCCCC2)cc1	i	1.1	0.0	.	.	-1	101
CCOC(=O)C(=CNc1cc(C(F)(F)F)ccc1N1CCOCC1)C(=O)OCC	i	0.9	.	.	.	.	114
CC(=O)N1N=C(c2ccc(Cl)cc2)OC12CCCC2	i	1.1	.	.	.	.	106
Cn1c(SCc2nc3ccccc3[nH]2)nnc1-c1cnccn1	i	1	-1.5	24	62	-7	101

(continued)
SMILES	HSV replic up	HSV replic up primary fold	GALR2 agonist	Insulin prom inh	Insulin prom inh cell count	PKD1 kinase inh	RGS16-Gao HTS
Cc1cc(NC(=O)CCN2C(=O)c3ccccc3C2=O)no1	i	0.83	-3.2	.	.	-6	103
CC(C)CNC(=S)NNC(=O)c1ccco1	i	0.67	-2.4	0	128	5	101
Cc1cc(-c2nnc(CSc3nnc(NC(=O)c4ccc(C(C)(C)C)cc4)s3)o2)ccc1[N+](=O)[O-]	i	1	.	.	.	.	101
O=C(O)CSCC(=O)N1CCCN(c2nc3ccc(Cl)cc3s2)CC1	i	1.3	.	.	.	.	92
CC(C)C(=O)Nc1oc(-c2ccccc2)cc1C#N	i	0.92	.	.	.	5	95
CC(C)On1c(SCC(=O)N(C)C)nc2ccccc2c1=O	i	0.95	.	.	.	.	100
CCn1c(C)nc2c(C)[n+](CC(=O)c3ccc(Br)cc3)ccc21	i	1.2	.	41	131	-5	95
CCC(=O)Nc1ccc(/C(C)=N\NC(=O)c2ccc(OC)cc2)cc1	i	0.85	-0.8	-8	120	-11	114
O=C(COc1nsnc1N1CCOCC1)Nc1ccc(Cl)cc1	i	0.95	.	.	.	3	100
Cc1nc2ncnn2c(C)c1CCC(=O)Nc1ccc(S(=O)(=O)N2CCCCCC2)cc1	i	0.69	-0.9	-8	97	-12	100
Cc1ccc2cc(CCNC(=O)C(C)C)c(=O)[nH]c2c1	i	0.95	-1.0	.	.	2	103
CCC(C)(C)n1nnnc1CN1CCC(O)(c2cccc(C(F)(F)F)c2)CC1	i	1.3	-1.3	25	71	3	103
COC(=O)N/N=C/c1ccc(-c2cc(Cl)cc(Cl)c2)o1	i	0.92	1.3	-5	172	5	107
COc1ccc(CCNS(=O)(=O)c2ccc3c(c2)oc(=O)n3C)cc1OC	i	0.92	-1.8	.	.	-17	100
COc1ccc2nc(-c3ccccc3)cc(OC)c2c1	i	0.81	-0.7	45	82	-2	167
CCOC(=O)c1c(NC(=O)c2ccoc2C)sc2c1CCC2	i	0.85	-3.0	i	51	7	97
NC(=O)C1(N2CCCCC2)CCN(C(=S)Nc2ccc(F)cc2)CC1	i	1.1	-0.5	-7	105	4	106
CCc1cc2c(SCC(=O)Nc3ccc(Cl)cn3)ncnc2s1	i	1.1	-0.6	-69	187	5	106
CC(=O)N1CCN(CC(=O)Nc2ccc([N+](=O)[O-])cc2Br)CC1	i	1	.	51	89	-2	106
CCN(CC)C(=O)c1cnn(-c2ccccc2)c1NC(=O)c1cccc(F)c1	i	1	-1.2	-107	79	0	102
COc1ccc(OC)c(-c2csc(N(C)C(=O)Cc3ccccc3)n2)c1	i	0.93	.	-6	95	10	95
COc1ccc(NC(=O)Cc2ccccc2)cc1	i	1	-0.7	33	96	2	106
Cc1ccc(C)c(-n2c(-c3cccnc3)n[nH]c2=S)c1	i	0.65	.	.	.	-2	79
CC(Sc1nc2cc(Cl)ccc2s1)C(=O)Nc1cccc(S(=O)(=O)N2CCOCC2)c1 (stereo not given)	i	0.89	-1.1	-74	126	-2	98
